TRb SRC2 PPI = qHTS for Inhibitors of the Interaction of Thyroid Hormone Receptor and Steroid Receptor Coregulator 2 | Thyroid hormone receptor beta (Homo sapiens), P10828 | TRbeta-SRC2 peptide binding, fluorescence polarization; receptor liganded with 1 µM T3 | Potency, µM (series often up to 106 µM), for the others: at the top dose activity change, negative = inhibition, usual class: inhibitors | 280,000 tested, 0.065% active | AID 1469, 2008;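 note: plate controls were bound peptide for no effect and peptide without receptor for full effect; nearly all actives have a fitted effect of over 50% in size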
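Assay buffer: 20 mM Tris-HCl, 100 mM NaCl, 10% glycerol, 1 mM EDTA, 0.01% NP-40, 1 mM DTT, 1 uM T3, 5% DMSO; TRb LBD 0.6 uM, Texas Red SRC2 20 nM; FP after 5 hr.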
GoLoco inh red = qHTS Assay for Inhibitors of RGS12 GoLoco Motif Activity (Red Fluorophore) | Guanine nucleotide-binding protein G(i) subunit alpha-1 (Homo sapiens), P63096 | Gai1:RGS12 GoLoco peptide FP, rhodamine, 10 min | Potency, µM (doses to about 61.6 µM), for the others: at the highest dose activity, negative = inhibition, usual class: inhibitors | 230,000 tested, 0.44% active; active = well fitted inhibition curve with a large enough effect, not every such curve was filed as active; inactive = no such curve, though single readings can be large or run the other way; note: nearly all actives have a fitted effect of over 30% in size; many of its hits are not listed in these tables
Target sequence (P63096 whole entry, looked up): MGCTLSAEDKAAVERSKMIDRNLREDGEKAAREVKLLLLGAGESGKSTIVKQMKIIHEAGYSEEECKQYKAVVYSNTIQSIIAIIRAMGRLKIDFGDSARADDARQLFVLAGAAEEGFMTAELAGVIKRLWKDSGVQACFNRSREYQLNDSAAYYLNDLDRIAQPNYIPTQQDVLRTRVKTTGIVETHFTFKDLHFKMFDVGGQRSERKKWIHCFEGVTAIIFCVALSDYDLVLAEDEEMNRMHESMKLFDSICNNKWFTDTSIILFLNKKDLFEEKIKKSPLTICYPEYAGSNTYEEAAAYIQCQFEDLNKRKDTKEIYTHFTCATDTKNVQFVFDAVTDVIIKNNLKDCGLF
RECQ1 inh = qHTS Assay for Inhibitors of RecQ-Like Dna Helicase 1 (RECQ1); 240,000 tested, 0.54% active; AID 2549, 2010; Potency, µM (top dose mostly 57.3 µM), inactives show at the highest dose activity, negative = inhibition, usual class: inhibitors; ATP-dependent DNA helicase Q1 (Homo sapiens), P46063; RECQ1 DNA unwinding, red fluorescence kinetic read;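 note: plate controls were vehicle for no effect and no enzyme for full effect; nearly all actives have a fitted effect of over 30% in size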
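RECQ1T1 50 nM; forked duplex (20 bp + 30-nt ss tails) 200 nM, ATP 2 mM final; pH 8.0, 2 mM MgCl2, 2.5 ug/ml poly(dI-dC); 15 min compound preincubation; discontinuous kinetic read over 2 h at RT.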
TexasRed fluor = Total Fluorescence Counterscreen for Inhibitors of the Interaction of Thyroid Hormone Receptor and Steroid Receptor Coregulator 2 | TRb/SRC2 Texas Red total fluorescence interference | Potency, µM (doses to about 106 µM), inactives show top-dose fluorescence change, negative = quenching | 280,000 tested, 0.29% active; active = well fitted curve in either direction with a large enough effect; inconclusive = small, poorly fitted or top-dose-only effect
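Human TRβ ligand-binding domain (0.6 uM) and Texas Red SRC2 peptide (20 nM) in Tris buffer with 1 uM T3 and 5% DMSO were incubated with pinned compound for 5 hr at ambient temperature. Total fluorescence was computed as S + 2P (555/632 nm).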
* = called active by the depositor; & = joins results of further samples; [ ] = another dose, or the depositor's remark. Unless noted, calls come from the whole dose curve; as a rule, active = well fitted curve in the direction sought with a large enough effect; inconclusive = small, poorly fitted or top-dose-only effect, or another doubt; inactive = no such curve, though single readings can be large; an effect the other way counts as inactive or inconclusive. Unless noted, % is set by controls: 0 for no effect and ±100 for the full control effect; potency is the fitted concentration of half-maximal effect. An excerpt. The share of hits here may be higher or lower than overall.

`C=CCN(CC#CCOc1ccccc1OC)CC=C` gave TRb SRC2 PPI -2%, GoLoco inh red -18%, RECQ1 inh inactive and TexasRed fluor 1%.
Screening CCOC(=O)c1ccccc1N returned TRb SRC2 PPI 4%, GoLoco inh red 5%, RECQ1 inh -6% and TexasRed fluor 0%.
For CCC(=O)Nc1cc(C(=O)O)ccc1S(=O)(=O)c1ccc(C)cc1 the results were TRb SRC2 PPI 4%, GoLoco inh red -12%, RECQ1 inh inconclusive and TexasRed fluor 0%.
For CC(=O)OCC1=C(C(=O)[O-])N2C(=O)[C@@H](NC(=O)CCC[C@@H](N)C(=O)[O-])[C@H]2SC1.[Zn+2] the results were TRb SRC2 PPI 1%, GoLoco inh red 4%, RECQ1 inh inactive and TexasRed fluor 1%.
Screening CNC(=O)Oc1ccc2c(c1)[C@]1(C)CCN(C)[C@@H]1N2C returned TRb SRC2 PPI -7%, GoLoco inh red 14%&9%&-4%, RECQ1 inh -11%&-11% and TexasRed fluor -6%.
For CC(C)N1CCN(c2ccc(O)cc2)CC1 the results were TRb SRC2 PPI -11%, GoLoco inh red -21%, RECQ1 inh -7% and TexasRed fluor 1%.
`CC1(C)C(C=C(Cl)Cl)C1C(=O)OC(C#N)c1cccc(Oc2ccccc2)c1` (stereo unspecified) gave TRb SRC2 PPI 1%, GoLoco inh red 5%&-17%, RECQ1 inh -6% and TexasRed fluor -1%.
Screening C[C@H]1CC[C@@]2(NC1)O[C@@H]1C[C@H]3[C@@H]4CC[C@@H]5C[C@@H](O)CC[C@@]5(C)[C@@H]4CC[C@]3(C)[C@@H]1[C@@H]2C returned TRb SRC2 PPI 3%[53 µM], GoLoco inh red 12%[21.6 µM], RECQ1 inh -11%[25.9 µM] and TexasRed fluor 5%[53 µM].
`Cc1ccc(OCC(=O)N2CCN(Cc3ccc([N+](=O)[O-])cc3)CC2)cc1` gave TRb SRC2 PPI -7%, GoLoco inh red -5%, RECQ1 inh 0% and TexasRed fluor 0%.
Cc1ccc(OCC(=O)N2CCN(Cc3cccnc3)CC2)cc1 was read as TRb SRC2 PPI -1%, GoLoco inh red -5%, RECQ1 inh inactive and TexasRed fluor -2%.
`CNCC[C@H](Oc1ccc(C(F)(F)F)cc1)c1ccccc1` gave TRb SRC2 PPI -6%, GoLoco inh red 14%, RECQ1 inh -9% and TexasRed fluor 2%.
CN(C)C1C(=O)C(C(N)=O)=C(O)[C@@]2(O)C(=O)C3=C(O)c4c(O)ccc(Cl)c4[C@](C)(O)C3CC12 (stereo partly specified) was read as TRb SRC2 PPI -5%, GoLoco inh red 0%, RECQ1 inh -1% and TexasRed fluor -5%.
`C[C@@H]1CC([C@H](O)CC2CC(=O)NC(=O)C2)C(=O)[C@@H](C)C1` (stereo partly specified) gave TRb SRC2 PPI -5%, GoLoco inh red 6%, RECQ1 inh inactive and TexasRed fluor -1%.
For CN1CC(CNC(=O)OCc2ccccc2)CC2c3cccc4c3c(cn4C)CC21 (stereo unspecified) the results were TRb SRC2 PPI 0%, GoLoco inh red 3%, RECQ1 inh inactive and TexasRed fluor 2%.
`C=CCc1ccc(OC)cc1` gave TRb SRC2 PPI 4%&-3%, GoLoco inh red 1%&-3%, RECQ1 inh 19%&14% and TexasRed fluor -2%&-2%.
For CN(C)CCCNCC(=O)Nc1ccc(Cl)cc1C(=O)c1ccccc1 the results were TRb SRC2 PPI 11%, GoLoco inh red 5%, RECQ1 inh 3% and TexasRed fluor 0%.
`CN1CCN(c2ccc(N)c(N3CCN(C)CC3)c2)CC1` gave TRb SRC2 PPI -21%, GoLoco inh red -61%, RECQ1 inh inconclusive and TexasRed fluor 18%.
`CC(C)NCC(O)COc1cccc2[nH]ccc12` (stereo unspecified) gave TRb SRC2 PPI 1%&14%&-7%&-1%, GoLoco inh red 8%&7%&5%&0%, RECQ1 inh -5%&15% and TexasRed fluor 4%&1%&0%&0%.
For COc1ccc(CCN(C)Cc2ccncc2)cc1OC the results were TRb SRC2 PPI -1%, GoLoco inh red -5%, RECQ1 inh -11% and TexasRed fluor -5%.
Screening C/C=C/CC#N returned TRb SRC2 PPI -2%, GoLoco inh red 8%, RECQ1 inh -2% and TexasRed fluor 0%.

Molecules shown so far that contain a Cl atom (3):
`CC1(C)C(C=C(Cl)Cl)C1C(=O)OC(C#N)c1cccc(Oc2ccccc2)c1` (stereo unspecified) gave TRb SRC2 PPI 1%, GoLoco inh red 5%&-17%, RECQ1 inh -6% and TexasRed fluor -1%.
CN(C)C1C(=O)C(C(N)=O)=C(O)[C@@]2(O)C(=O)C3=C(O)c4c(O)ccc(Cl)c4[C@](C)(O)C3CC12 (stereo partly specified) was read as TRb SRC2 PPI -5%, GoLoco inh red 0%, RECQ1 inh -1% and TexasRed fluor -5%.
For CN(C)CCCNCC(=O)Nc1ccc(Cl)cc1C(=O)c1ccccc1 the results were TRb SRC2 PPI 11%, GoLoco inh red 5%, RECQ1 inh 3% and TexasRed fluor 0%.

Structural class: those above with sulfur
For CCC(=O)Nc1cc(C(=O)O)ccc1S(=O)(=O)c1ccc(C)cc1 the results were TRb SRC2 PPI 4%, GoLoco inh red -12%, RECQ1 inh inconclusive and TexasRed fluor 0%.
For CC(=O)OCC1=C(C(=O)[O-])N2C(=O)[C@@H](NC(=O)CCC[C@@H](N)C(=O)[O-])[C@H]2SC1.[Zn+2] the results were TRb SRC2 PPI 1%, GoLoco inh red 4%, RECQ1 inh inactive and TexasRed fluor 1%.
